# Screening results (PubChem BioAssay)
# Rce1 inh = yeast Ras-converting enzyme inhibition | Q03530 | yeast membranes, quenched prenylated peptide cleavage fluorescence | calls only | actives 0.27% (n = 290,000) | AID 2563;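 active = fall in fluorescence gain of 50% or more versus controls, with final raw signal at or below 3038400; inconclusive = same 50% fall but final raw signal above 3038400; inactive = fall in fluorescence gain under 50%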;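 note: plate controls were neutral control wells for no effect and wells lacking membranes for full effect; tested at 10 µM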
# Target sequence (Q03530 whole entry, looked up): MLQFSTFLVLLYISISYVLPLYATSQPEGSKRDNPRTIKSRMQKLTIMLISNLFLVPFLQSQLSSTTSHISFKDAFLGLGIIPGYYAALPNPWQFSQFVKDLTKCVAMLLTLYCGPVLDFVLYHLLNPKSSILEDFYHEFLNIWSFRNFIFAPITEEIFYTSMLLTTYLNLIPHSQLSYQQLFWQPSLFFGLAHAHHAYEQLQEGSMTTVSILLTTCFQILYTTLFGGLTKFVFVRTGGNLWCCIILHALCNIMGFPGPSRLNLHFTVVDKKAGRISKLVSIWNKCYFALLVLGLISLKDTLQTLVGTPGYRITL
# PABP polyA inh = PABP-poly(A) binding inhibition; P11940; PABP-poly(A) RNA binding, fluorescence polarization; inhibition, % at 35 µM; actives 1% (n = 290,000); AID 2014;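 active = 50% or more with normal probe brightness, or confirmed in later tests; inconclusive = above 50% with abnormal brightness, or retests that disagree; inactive = below 50% or failed in later tests; about a fifth of its hits are not listed in these tables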;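 note: calls also rest on retests at 20 µM and on dose response follow-up; controls were probe without protein and protein plus probe with vehicle; some compounds called inactive have numbers as strong as hits; many hits fall short of the cut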
# Env fusion inh = blocks HIV Env-driven cell-cell fusion. inhibition, % at 12.3 µM. HeLa-JRFL Env/CEM21 cell fusion, luciferase. actives 1.1% (n = 360,000);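 active = mean replicate inhibition score of at least 50 and every replicate individually at or above 50; inconclusive = only one of the two criteria met; inactive = mean below 50 and not all replicates reaching 50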;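 note: 0% = plate neutral controls and 100% = maraviroc near 300 nM; one replicate is shown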
# CSC inhib = cancer stem cell inhibition. cancer stem cell-like cells viability, luminescence. inhibition, % at 7.5 µM. actives 1.1% (n = 300,000). AID 2717;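 active = mean at 75% or more and at least half the replicates too; inconclusive = mean and replicates disagree; tested in HMLE shEcad cells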;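 note: 0% = median of negative and 100% = median of positive control wells; the first replicate is given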
# eIF4H inh = inhibitors of RNA binding by human eIF4H; eIF4H fluorescence polarization binding assay; inhibition, % at 35 µM; actives 0.94% (n = 290,000); AID 2012;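 active = 50% or more with normal probe brightness, or confirmed in later tests; inconclusive = above 50% with abnormal brightness, or retests that disagree; inactive = below 50% or failed in later tests; about a fifth of its hits are not listed in these tables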;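 note: calls also rest on retests at 20 µM and on dose response follow-up; 0% = protein and probe with vehicle and 100% = probe without protein; strong numbers were not always called active; many hits fall short of the cut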
# MT1-MMP act inh = MT1-MMP (human) activation inhibition | P50281 | HT1080 RFP-PRO-GFP cells, GFP/RFP ratio fluorescence, overnight; percent of plate control window, DMSO zero | GFP/RFP ratio change, % at 20 µM | actives 0.061% (n = 360,000);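 active = GFP/RFP ratio change of at least 30% with cell ATP level not reduced by more than half and red fluorescence within 50% of control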; note: strong numbers were not always called active
#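 Assay system: HT1080 cells carrying an RFP-PRO-GFP reporter | Dosing: Single dose of 20 µM compound, 1% DMSO final | Incubation: Cells overnight before dosing, compound overnight, 37 °C, 5% CO2 | Evaluation: GFP/RFP fluorescence ratio | Control set: DMSO and RFP-L50D-GFP cell wells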
# UUG fidelity = yeast start codon fidelity modulation. activity score, % at 18.7 µM. S. cerevisiae UUG-firefly luciferase reporter, luminescence/redox ratio. actives 0.13% (n = 350,000);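 active = replicate mean at a twofold rise or more, about +100% in these data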;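 note: firefly luciferase made from a UUG start codon reports start codon fidelity; reporter light over untreated wells divided by growth signal over untreated wells; some hits fall short of that in this replicate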
# MT1-MMP act inh RFP = recorded beside MT1-MMP act inh, whose call it bears; RFP signal change, %; measured here: RFP expression control read;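 0 = vehicle wells; hits needed this value within 50% of zero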
# Active calls of the source: *; i = inactive; ? = inconclusive; . = no result given.
SMILES,Rce1 inh,PABP polyA inh,Env fusion inh,CSC inhib,eIF4H inh,MT1-MMP act inh,MT1-MMP act inh RFP,UUG fidelity
CC(CN1CCCCC1)OC(=O)c1ccco1 (stereo unspecified),i,10,2,-11,5,-6,-6,-11
O=C(NCc1cccnc1)C(=O)c1c[nH]c2ccccc12,i,5,7,-16,-2,-1,-2,-7
Cc1ccccc1NC(=O)c1ccc(NC(=O)c2ccco2)cc1,i,-5,-30,-5,-2,5,-1,-14
CCOC(=O)NN1C(=O)c2ccccc2NC1c1ccc(OC)cc1 (stereo unspecified),i,7,27,-5,1,2,-2,-10
COc1cc(/C=N/O)ccc1Oc1ccc([N+](=O)[O-])cc1[N+](=O)[O-],i,0,-4,10,-8,-6,-19,.
COc1ccc(C2C(C(N)=O)=C(C)Nc3nc(CCCO)nn32)cc1OC (stereo unspecified),i,-6,.,-3,-5,-2,1,.
CCCCN(CC)CCNC(=O)c1cc2c(=O)[nH]c3ccccc3c2s1,i,7,7,-8,1,4,0,-27
CC1=C(C(=O)N2CCOCC2)C(c2cccs2)NC(=O)N1 (stereo unspecified),i,6,.,.,-4,-7,1,3
COc1ccc(S(=O)(=O)N(C)C[C@H]2Oc3ccc(NS(=O)(=O)c4ccccc4)cc3C(=O)N([C@H](C)CO)C[C@@H]2C)cc1,.,.,9,.,.,0,2,-35
COc1ccc(S(=O)(=O)NC(C)C(=O)NCc2ccncc2)cc1C (stereo unspecified),i,14,11,-10,1,2,2,-8
N#Cc1c(-c2ccc(Cl)cc2)cc(-c2ccccc2)nc1SCC(=O)O,i,14,27,32,0,6,1,-2
O=C(N/N=C/c1cccc([N+](=O)[O-])c1)c1cccs1,i,-4,-54,-10,-12,5,4,.
CC(C)(C)C1CCC(C(=O)Nc2ccccc2)CC1 (stereo unspecified),i,-6,-30,6,11,1,-3,-7
CCc1nc2oc3ccc(C)cc3c(=O)c2cc1C(=O)OC,i,-1,-28,-5,-7,-1,0,-3
COc1cc(OC)cc(C(=O)NNC(=O)c2cc3ccccc3cc2O)c1,i,-1,21,32,12,2,-2,-13
N#C/C(=C\c1ccc(N2CCOCC2)o1)c1nc2ccccc2[nH]1,i,?,.,-4,?,-81,48,-28
Cc1cc(/C=N/NC(=O)CC2(C)OCCO2)c(C)n1-c1ccc(Cl)c(Cl)c1,i,-8,.,26,-6,-3,-2,-12
CC(/C=C/c1ccco1)=N/NC(=O)c1ccccc1Cl,i,-2,-16,3,3,-11,0,-11
COc1cccc(C2CCCCN(C)C2=O)c1 (stereo unspecified),i,4,2,-2,-8,0,3,-13
CC(C)CC(=O)N=C1SC2CS(=O)(=O)CC2N1Cc1ccccc1Cl (stereo unspecified),i,-9,4,4,-10,-1,-2,-1
CC(C)c1ccc(NC(=O)COC(=O)CC2CCCC2)cc1,.,.,12,15,.,2,2,-17
N#Cc1ccc(N/N=C/c2cn(-c3ccccc3)nc2-c2ccccc2)c([N+](=O)[O-])c1,i,4,10,56,2,4,-4,.
Fc1ccc(-c2csc(-c3ccncc3)n2)cc1,i,16,-15,5,-1,-5,-2,-25
COc1c(F)c(F)c(C(=O)O)c(Nc2ccccc2C)c1F,i,11,22,-9,0,-6,2,-5
COC(=O)c1sc(SC)c(-c2ccon2)c1C,.,-8,-13,11,-11,1,0,.
Fc1ccc(N=C2NN=C(c3cc(F)ccc3F)CS2)cc1,.,-7,-30,30,0,-20,-4,.
O=C(NNc1ccccc1[N+](=O)[O-])Nc1ccc(F)cc1,i,-4,.,-11,-8,6,4,.
CC(=O)Nc1c(O)c2ccccc2[nH]c1=O,i,-1,10,-11,2,-12,-5,-25
S=c1[nH]nc(-c2ccco2)n1/N=C/c1cccc(Cl)c1,i,5,-2,13,-6,2,1,.
O=C(NCc1cccs1)C1CCCN(S(=O)(=O)c2ccc(Br)s2)C1 (stereo unspecified),i,2,.,-12,-2,-2,-3,4
CC(C)c1ccccc1NC(=O)COc1ccc2c(=O)c(Oc3ccc4ccccc4c3)coc2c1,i,3,.,16,22,.,.,.
O=C1CCC([N+](=O)[O-])C(c2cccc(Br)c2)N1 (stereo unspecified),i,8,16,-8,-2,2,2,.
NC(=O)C1(N2CCCCC2)CCN(C(=S)Nc2cccc(Cl)c2)CC1,i,-1,15,-6,5,2,3,-14
O=C(NCC1CC1)Nc1cccc(Cl)c1,i,-7,-2,-4,-3,0,0,-13
O=C(CSc1ncn(-c2ccccc2)n1)Nc1ccc2c(c1)OCCO2,i,7,11,-9,1,12,9,-10
CCOc1ccc2nc(N(CCCN(C)C)C(=O)c3ccc4c(c3)CCCC4)sc2c1,i,9,0,-6,-10,.,.,-1
COC(=O)C1=C(C)N(CCc2c[nH]c3ccc(OC)cc23)C(=O)C1,i,7,7,-5,-7,2,3,.
COc1ccc(OC)c2sc(N(CCN(C)C)C(=O)/C=C/c3cccs3)nc12,i,-41,23,18,-13,-2,-5,0
COC(=O)c1ccc(OCC(O)CN(CC(C)C)CC(C)C)cc1 (stereo unspecified),i,-3,.,1,-5,0,4,-13
O=C1C(=O)N(CCN2CCOCC2)C(c2ccccc2)/C1=C(\O)c1ccc2c(c1)OCCO2 (stereo unspecified),i,-1,-4,-1,-7,-4,2,-23

# 3 entries from above, sorted by their value in MT1-MMP act inh RFP, largest number first:
canonical_smiles	MT1-MMP act inh RFP
O=C(CSc1ncn(-c2ccccc2)n1)Nc1ccc2c(c1)OCCO2	9
NC(=O)C1(N2CCCCC2)CCN(C(=S)Nc2cccc(Cl)c2)CC1	3
O=C1C(=O)N(CCN2CCOCC2)C(c2ccccc2)/C1=C(\O)c1ccc2c(c1)OCCO2 (stereo unspecified)	2

# (list continues)
SMILES,Rce1 inh,PABP polyA inh,Env fusion inh,CSC inhib,eIF4H inh,MT1-MMP act inh,MT1-MMP act inh RFP,UUG fidelity
O=C(CCc1nc(-c2ccccc2)no1)NCc1ccccc1CN1CCOCC1,.,.,-24,.,.,-2,-1,-8
COC(=O)c1ccc(NC(=O)CSCc2ccccc2C)cc1,i,-2,.,.,9,-1,-2,-9
CCC1NC(=O)c2cc(S(N)(=O)=O)c(Cl)cc2N1 (stereo unspecified),.,.,22,-7,.,0,0,-18
CCCCC(c1nnnn1C1CCCC1)N1CCN(C2CCCC2)CC1 (stereo unspecified),i,0,.,7,-1,-2,1,-8
CC(Sc1nc(N)cc(=O)[nH]1)C(=O)Nc1cccc(Cl)c1 (stereo unspecified),i,-8,23,-15,3,2,1,.
Cc1ccccc1CS(=O)(=O)c1ccc(C(=O)N2CCOCC2)cc1[N+](=O)[O-],i,-1,5,-8,-8,-16,-7,-7
O=C(NCCc1ccc(S(=O)(=O)N2CCCC2)cc1)c1cccs1,i,-5,.,4,-8,0,1,-15
CCn1nnc(NC(=O)c2cccnc2)n1,i,1,.,-5,0,5,6,-5
CCOC(=O)c1ccc(NC(=O)CC2S/C(=N/N=C3/NC(=O)CS3)NC2=O)cc1 (stereo unspecified),i,-3,9,-7,8,1,2,.
COc1ccc(S(=O)(=O)N2CCCC(C(=O)NCCCn3ccnc3)C2)cc1OC (stereo unspecified),i,1,-1,.,-2,3,4,-11
O=C1CSC(c2ccccc2)N1Cc1ccccc1 (stereo unspecified),i,8,-4,-11,0,2,-2,-20
Cc1ccccc1CNC(=O)C1CCCN(c2cnccn2)C1 (stereo unspecified),i,-6,-8,.,-13,0,3,-13
Cn1cc(C(=O)NCC(=O)Nc2ccccc2Br)cn1,.,.,.,11,.,-2,4,-16
N#CC(=C1C=C(Br)C(=NO)C=C1Cl)c1cccc2ccccc12,.,.,-14,.,.,0,-6,-15
Cc1ccc(Sc2ncccc2C(=O)O)cc1C,i,-2,-14,-5,2,4,10,.
CC(C)C(=O)Nc1ccc(-c2nnc(-c3ccccc3)o2)cc1,i,-7,-50,10,-1,-1,-6,5
CCOC(=O)Cn1nc2sc3ccccc3n2c(=O)c1=O,i,3,4,.,-8,1,4,-26
COc1cccc(NC(=S)N(CCc2c(C)[nH]c3ccc(C)cc23)Cc2cccs2)c1,i,-2,-28,11,9,0,-3,-26
Cc1ccc(-c2n[nH]c(=S)n2/N=C/C=C/c2ccccc2[N+](=O)[O-])cc1,i,-9,-36,4,9,-6,-4,-8
CC(=O)N1c2ccc(S(=O)(=O)NCC3CCC(C(=O)NCc4ccco4)CC3)cc2CC1C (stereo unspecified),i,0,10,-8,0,1,2,9
COc1cc2oc3ccccc3c(=O)c2cc1OC,i,-7,.,4,-2,4,1,-13
CCOc1ccc(Nc2oc(Cc3ccccc3)nc2C#N)cc1,i,-6,.,10,-3,-4,-7,-10
COc1ccccc1Cn1c(C)c(C(=O)NCc2ccco2)sc1=O,.,.,4,.,.,1,3,-14
CC(C)(C)N1CC(C(=O)Nc2ccc(S(N)(=O)=O)cc2)CC1=O (stereo unspecified),i,14,1,12,-5,-1,-1,-9
C=CCNC(=O)CCCCC(=O)NCC=C,i,-4,-134,-13,0,-1,2,-16
COC(=O)c1c(NC(=O)c2ccn(C)n2)sc2c1CCC2,i,-3,-6,2,-13,-1,0,1
C/C(=N\NC(=O)C(=O)Nc1cc(C)ccc1C)c1ccncc1,i,1,-3,-1,3,4,1,.
CCN(CC)CCN(CC)Cc1ccccc1Br,i,15,.,-3,3,5,3,.
Cc1csc(CN(C)C(=O)CC2C(=O)NCCN2Cc2ccc(F)c(F)c2)n1 (stereo unspecified),i,11,1,0,7,-3,3,-5
COc1ccc(NC(=O)CN2CCN(CC(=O)Nc3ccccc3F)CC2)c(OC)c1,i,7,.,9,4,1,-5,6
Brc1ccc(C=Nc2ccc3c(c2)OCCOCCOCCO3)s1,i,5,-13,1,10,-2,2,-8
COc1ccc(-c2noc(CCC(=O)NC3CCCCCC3)n2)cc1OC,.,.,-4,.,.,0,-2,-12
COc1ccc(N(CC(=O)N/N=C/c2cccnc2)S(=O)(=O)c2ccccc2)c(OC)c1,i,-4,11,-11,-4,-2,2,3
CCOC(=O)C1=C(C)N(CC)C(=S)NC1c1ccccc1OC(F)F (stereo unspecified),.,15,-16,-7,-6,0,2,.
c1coc(CN2CNc3nc4ccccc4n3C2)c1,i,0,4,-12,4,-2,-1,.
Cc1cc(C(=O)NC2CCCC2)c2ccccc2n1,i,-6,1,-28,-7,-2,-4,-19
CCCOC(=O)c1ccc(NC(=O)C2C3CCC(C3)C2C(=O)O)cc1 (stereo unspecified),i,6,30,-1,1,4,7,.
CCOC(=O)C1CCCN(CC(=O)c2ccc(F)cc2)C1 (stereo unspecified),i,19,14,-12,-4,3,0,-10
CC1(C(=O)NS(=O)(=O)c2ccccc2)CCN1C(=O)Cc1cccs1 (stereo unspecified),.,.,-5,.,.,0,6,-2
CSc1nc2ccc3nc(NC(=O)c4ccc(Cl)s4)sc3c2s1,i,5,.,-1,-10,1,-2,-33
Cc1ccc(NC(=O)C2COc3ccccc3O2)cc1S(=O)(=O)N1CCCCC1 (stereo unspecified),.,.,.,-7,.,-4,-15,-6

# In the list so far, these contain a COOH group.
SMILES,Rce1 inh,PABP polyA inh,Env fusion inh,CSC inhib,eIF4H inh,MT1-MMP act inh,MT1-MMP act inh RFP,UUG fidelity
N#Cc1c(-c2ccc(Cl)cc2)cc(-c2ccccc2)nc1SCC(=O)O,i,14,27,32,0,6,1,-2
COc1c(F)c(F)c(C(=O)O)c(Nc2ccccc2C)c1F,i,11,22,-9,0,-6,2,-5
Cc1ccc(Sc2ncccc2C(=O)O)cc1C,i,-2,-14,-5,2,4,10,.
CCCOC(=O)c1ccc(NC(=O)C2C3CCC(C3)C2C(=O)O)cc1 (stereo unspecified),i,6,30,-1,1,4,7,.

# A portion of the library, so the mix of outcomes need not match the whole.
